Source: PubChem (Broad Institute)
FGF22 binding = binders of human FGF22 protein, primary screen, FGF22 synaptogenesis inhibitor project, biophysical, thermal shift, single point | recombinant FGF22 thermal shift, SYPRO orange fluorescence; percent of sucrose octasulfate shift, DMSO zero | AID 651658, 2012 | calls only at 9.99 µM | Fibroblast growth factor 22 (Homo sapiens), Q9HCT0 | hit rate 1.5% among 340,000;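 active means melting point raised past a set limit in the mean and every replicate; three in four hits are not shown here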
Target sequence (Q9HCT0 whole entry, looked up): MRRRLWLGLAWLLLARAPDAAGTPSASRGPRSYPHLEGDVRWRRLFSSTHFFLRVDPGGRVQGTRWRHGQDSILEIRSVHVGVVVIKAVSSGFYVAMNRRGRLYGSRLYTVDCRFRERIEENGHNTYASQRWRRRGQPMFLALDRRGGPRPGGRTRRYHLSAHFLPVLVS
MLL AF4-AF9 inh = inhibitors of AF4 peptide binding to AF9, primary screen, biochemical, AlphaScreen, biotin-AF4 peptide, FLAG-AF9, single point; hit rate 0.47% among 350,000; Protein AF-9 (Homo sapiens), P42568; inhibition, % at 10 µM;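 active means every replicate reaching a set inhibition limit, whatever the replicate mean, cut at about 25% in these data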;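 further: 0% = plate neutral control median and 100% = total signal loss; the record names both 10 and 1 µM as test concentration; the first replicate is given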
Target sequence (P42568 whole entry, looked up): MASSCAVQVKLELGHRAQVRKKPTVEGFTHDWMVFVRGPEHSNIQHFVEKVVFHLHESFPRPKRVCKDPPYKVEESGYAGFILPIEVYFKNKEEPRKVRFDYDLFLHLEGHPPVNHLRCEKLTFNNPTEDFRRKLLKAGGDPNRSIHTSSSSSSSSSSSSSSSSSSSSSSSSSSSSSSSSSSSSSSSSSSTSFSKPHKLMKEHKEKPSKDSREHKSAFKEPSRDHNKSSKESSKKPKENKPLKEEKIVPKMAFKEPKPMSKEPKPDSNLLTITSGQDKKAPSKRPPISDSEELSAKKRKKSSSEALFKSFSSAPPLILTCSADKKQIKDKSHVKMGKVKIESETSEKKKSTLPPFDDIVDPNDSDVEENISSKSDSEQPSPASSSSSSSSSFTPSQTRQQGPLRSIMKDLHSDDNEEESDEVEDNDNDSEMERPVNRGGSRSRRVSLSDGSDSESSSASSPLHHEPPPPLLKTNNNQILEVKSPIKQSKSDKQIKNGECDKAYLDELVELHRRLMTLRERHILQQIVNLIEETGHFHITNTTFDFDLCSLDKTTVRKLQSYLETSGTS
* marks the source's active call; other numbers are inactive results; i = inactive; + = active, no number. Some of the compounds tested (hit frequency here may not be typical).

SMILES	FGF22 binding	MLL AF4-AF9 inh
C[C@@H]1CN([C@@H](C)CO)C(=O)Cc2cc(NC(=O)Nc3ccc4c(c3)OCO4)ccc2O[C@H]1CN(C)Cc1ccc(C(=O)Nc2ccccc2N)cc1	i	0.0
CCC(=O)Nc1ccc2c(c1)OC[C@@H](C)N(C(=O)COC)C[C@@H](C)[C@H](OC)CN(C)C2=O	i	-2.7
CO[C@@H]1CN(C)C(=O)c2ccc(NC(=O)C3CC3)cc2OC[C@H](C)N(CC2CC2)C[C@@H]1C	i	-2.0
C[C@@H]1CN([C@@H](C)CO)C(=O)c2cc(NC(=O)CCC(F)(F)F)ccc2O[C@@H]1CN(C)C(=O)Nc1ccccc1	i	-11
CN(C)CC(=O)N[C@H]1CC[C@H](CCNC(=O)C2CCCCC2)O[C@H]1CO	i	-0.6
Cc1ccc(S(=O)(=O)N(C)C[C@H]2Oc3ccc(NC(=O)C4CCCCC4)cc3C(=O)N([C@@H](C)CO)C[C@H]2C)cc1	i	-12
O=C(C[C@@H]1CC[C@H](NC(=O)Nc2cc(F)ccc2F)[C@H](CO)O1)NCc1ccc2c(c1)OCO2	i	-16
C[C@@H]1CCCCO[C@H](CN(C)C(=O)Nc2ccc3c(c2)OCO3)[C@@H](C)CN([C@@H](C)CO)C(=O)c2cc(NS(=O)(=O)c3cn(C)cn3)ccc2O1	i	-2.9
CN1c2ccc(-c3ccccc3)cc2[C@H]2[C@H](CCN2C(=O)Cc2ccccn2)[C@@H]1CO	i	-2.5
O=C(c1ccccc1F)N1CC(=O)N2[C@H](CO)[C@@H](c3ccc(-c4ccc(F)cc4)cc3)[C@@H]2C1	i	-3.4
CN1C(=O)N[C@@H]2c3ccccc3O[C@@]1(C)[C@@H]2COC(=O)c1ccc([N+](=O)[O-])cc1	i	1.2
COc1ccc(CN(C)C[C@@H]2OCCCC[C@@H](C)Oc3ccc(NC(=O)Nc4ccc5c(c4)OCO5)cc3C(=O)N([C@H](C)CO)C[C@H]2C)cc1	i	20
CO[C@@H]1CN(C)C(=O)c2cc(NC(=O)Nc3ccccc3)ccc2OC[C@@H](C)N(C(=O)CC2CC2)C[C@@H]1C	i	2.3
C[C@H](CO)N1C[C@H](C)[C@H](CN(C)Cc2cncnc2)Oc2ncc(-c3cccc(F)c3)cc2C1=O	i	-12
Cc1noc(C)c1S(=O)(=O)Nc1ccc2c(c1)CC(=O)N([C@H](C)CO)C[C@H](C)[C@@H](CN(C)Cc1ccncc1)O2	i	-1.1
Cc1noc(C)c1S(=O)(=O)N(C)C[C@@H]1OCCCC[C@@H](C)Oc2ccc(NC(=O)C3CCCCC3)cc2C(=O)N([C@@H](C)CO)C[C@H]1C	i	0.1
C[C@@H]1CN([C@@H](C)CO)C(=O)c2cccc(NC(=O)C3CC3)c2O[C@@H]1CN(C)C(=O)Nc1cccc2ccccc12	i	-5.0
CN(C)C(=O)c1cccc(-c2ccc([C@@H]3[C@H](CO)N4CCCCN(CC5CCOCC5)C[C@@H]34)cc2)c1	i	2.3
C[C@@H]1CN([C@@H](C)CO)C(=O)c2cccc(NC(=O)CCCCCC(=O)Nc3ccccc3N)c2O[C@H]1CN(C)C(=O)Nc1cccc2ccccc12	i	-0.4
C[C@@H]1CN([C@@H](C)CO)C(=O)c2c(c3ccccc3n2C)-c2ccccc2CO[C@H]1CN(C)C(=O)c1ccccc1	i	-0.3

Another view of part of the listing above.
CN1c2ccc(-c3ccccc3)cc2[C@H]2[C@H](CCN2C(=O)Cc2ccccn2)[C@@H]1CO
- FGF22 binding: i
- MLL AF4-AF9 inh: -2.5

COc1ccc(CN(C)C[C@@H]2OCCCC[C@@H](C)Oc3ccc(NC(=O)Nc4ccc5c(c4)OCO5)cc3C(=O)N([C@H](C)CO)C[C@H]2C)cc1
- FGF22 binding: i
- MLL AF4-AF9 inh: 20

CN(C)C(=O)c1cccc(-c2ccc([C@@H]3[C@H](CO)N4CCCCN(CC5CCOCC5)C[C@@H]34)cc2)c1
- FGF22 binding: i
- MLL AF4-AF9 inh: 2.3

CN1C(=O)N[C@@H]2c3ccccc3O[C@@]1(C)[C@@H]2COC(=O)c1ccc([N+](=O)[O-])cc1
- FGF22 binding: i
- MLL AF4-AF9 inh: 1.2

Remaining list, next part
SMILES	FGF22 binding	MLL AF4-AF9 inh
CCNC(=O)C[C@H]1CC[C@@H](NC(=O)C2CC2)[C@H](CO)O1	i	0.6
CS(=O)(=O)N1[C@H](C#N)[C@H](c2ccccc2-c2ccc(F)cc2)[C@@H]1CO	i	1.0
CNC[C@@H]1Oc2ccc(NC(=O)CCC(F)(F)F)cc2C(=O)N([C@@H](C)CO)C[C@@H]1C	i	-2.7
C[C@H]1CN([C@@H](C)CO)C(=O)c2ccccc2-c2ccccc2CO[C@@H]1CN(C)C(=O)[C@@H](Cc1ccccc1)N(C)C	i	-1.9
C[C@H](O)C#Cc1cnc2c(c1)C(=O)N([C@H](C)CO)C[C@H](C)[C@H](CN(C)C(=O)c1ccncc1)O2	i	-2.2
Cc1noc(C)c1NC(=O)N[C@@H]1CC[C@@H](CCNC(=O)C2CCOCC2)O[C@H]1CO	i	-20
C#CCN(C[C@H]1[C@H](OC(=O)Nc2cccs2)[C@H](OC(=O)Nc2cccs2)CN(C(=O)OC(C)C)N1C(=O)OC(C)C)S(=O)(=O)c1ccc(C)cc1	i	-2.5
CCCNC(=O)N[C@H]1C=C[C@@H](CC(=O)NC2CCCCC2)O[C@@H]1CO	i	-1.1
CC(C)[C@H]1COCn2nncc2CCCC(=O)N1	i	-2.3
Cc1noc(C)c1NC(=O)N(C)C[C@H]1Oc2ccc(NC(=O)Nc3ccccc3)cc2CC(=O)N([C@H](C)CO)C[C@@H]1C	i	0.4
C[C@@H]1CN([C@H](C)CO)C(=O)c2cccc(NC(=O)Nc3ccc4c(c3)OCO4)c2O[C@@H]1CN(C)S(=O)(=O)c1cn(C)cn1	i	0.0
Cc1ccc(S(=O)(=O)Nc2cccc3c2O[C@H](CN(C)C(=O)NC(C)C)[C@@H](C)CN([C@@H](C)CO)C3=O)cc1	i	-2.8
O=C(C[C@H]1CC[C@@H](NC(=O)CN2CCOCC2)[C@@H](CO)O1)NCCc1ccccc1	i	-1.6
CN(C)CC(=O)N[C@@H]1CC[C@H](CCNC(=O)C2CCCCC2)O[C@H]1CO	i	-0.4
C[C@H](CO)N1C[C@H](C)[C@H](CN(C)S(C)(=O)=O)OCCCC[C@H](C)Oc2ccc(NS(=O)(=O)c3ccc(F)cc3)cc2C1=O	i	3.0
O=C(NCc1ccccc1)[C@@H]1CCCN1C(=O)[C@H]1CCCN1C(=O)c1ccc(F)cc1	i	-1.6
C[C@H]1CN([C@@H](C)CO)C(=O)c2cc(NC(=O)CCN3CCOCC3)ccc2O[C@H]1CN(C)C(=O)NC1CCCCC1	+	-2.5
C[C@@H](O)C#Cc1ccc([C@H]2[C@H](CO)N3CCCCN(C(=O)c4ccncc4)C[C@@H]23)cc1	i	2.1
COCC(=O)Nc1ccc2c(c1)C(=O)N(C)C[C@H](OC)[C@@H](C)CN(C(=O)CC1CC1)[C@@H](C)CO2	i	-0.1
CO[C@H]1CN(C)C(=O)c2cc(NC(=O)NC3CCCCC3)ccc2OC[C@H](C)N(CC2CCOCC2)C[C@H]1C	i	-18
COc1ccc(NC(=O)Nc2ccc3c(c2)CC(=O)N([C@H](C)CO)C[C@H](C)[C@@H](CN(C)C(=O)Nc2ccc4c(c2)OCO4)O3)cc1	i	2.5
CC(C)C#Cc1cnc2c(c1)C(=O)N([C@H](C)CO)C[C@H](C)[C@@H](CN(C)C(=O)c1ccccc1)O2	i	0.3
C[C@@H]1CN([C@H](C)CO)C(=O)c2cccc(NC(=O)c3ccncc3)c2O[C@H]1CN(C)S(C)(=O)=O	i	-2.0
C[C@@H]1CN([C@@H](C)CO)C(=O)c2cc(NS(=O)(=O)c3cn(C)cn3)ccc2O[C@@H](C)CCCCO[C@H]1CN(C)Cc1ccc(C(=O)O)cc1	i	-2.6
O=C(C[C@H]1CC[C@@H]2[C@H](COC[C@H](O)CN2Cc2cc(F)ccc2F)O1)N[C@@H]1CCN(Cc2ccccc2)C1	i	5.5
COCC#Cc1cnc2c(c1)C(=O)N([C@@H](C)CO)C[C@H](C)[C@H](CN(C)C(=O)C1CCC1)O2	i	-12
CCS(=O)(=O)NCC[C@@H]1CC[C@@H](NC(=O)Nc2cc(Cl)cc(Cl)c2)[C@@H](CO)O1	i	-3.6
CN1C(=O)c2cc(NS(C)(=O)=O)ccc2OC[C@H]2O[C@@H](CC(=O)O)CC[C@@H]21	i	-0.9
O=C(C[C@@H]1CC[C@H](NC(=O)c2cccc(F)c2)[C@H](CO)O1)NCc1ccccc1	i	-1.5
CC(C)CC#Cc1ccc2c(c1)O[C@H](CN(C)C)[C@@H](C)CN([C@H](C)CO)S2(=O)=O	i	3.1
CO[C@H]1CN(C)C(=O)c2cc(NC(=O)C3CC3)ccc2OC[C@H](C)N(C(=O)CN2CCOCC2)C[C@@H]1C	i	-2.5
C[C@@H]1CN([C@H](C)CO)C(=O)c2cc(NC(=O)c3ccncc3)ccc2O[C@@H]1CN(C)CC1CCCCC1	i	-2.8
CO[C@@H]1CN(C)C(=O)c2ccc(NC(C)=O)cc2OC[C@@H](C)N(Cc2ccccn2)C[C@H]1C	i	-0.5
O=C(C[C@H]1CC[C@@H]2[C@H](COC[C@H](O)CN2C(=O)c2ccncc2)O1)NCc1ccc(-c2ccccc2)cc1	i	-6.2
COCC#Cc1cnc2c(c1)C(=O)N([C@H](C)CO)C[C@H](C)[C@@H](CN(C)Cc1ccc3c(c1)OCO3)O2	i	-0.7
CN1CCN(C(=O)C[C@@H]2CC[C@@H]3[C@H](COC[C@H](O)CN3Cc3cccc(F)c3)O2)CC1	i	-0.3
CCNC(=O)c1cc2c(c(-c3cccc(-c4cccnc4)c3)n1)[C@@H](CCO)N(S(C)(=O)=O)C2	i	0.0
CCC(=O)N(C)C[C@@H]1Oc2cc(-c3cccc(OC)c3)ccc2S(=O)(=O)N([C@H](C)CO)C[C@H]1C	i	-3.7
CCCN(C)C[C@H]1OCCCC[C@H](C)Oc2ccc(NC(=O)CCC(F)(F)F)cc2C(=O)N([C@H](C)CO)C[C@@H]1C	i	-3.0
COc1ccccc1NC(=O)N[C@H]1CC[C@H](CCn2cc(-c3ccccc3)nn2)O[C@H]1CO	i	1.8
N#C[C@H]1[C@@H](c2ccc(C#CC3CCCCC3)cc2)[C@@H](CO)N1C(=O)c1cccc(F)c1	i	-11
Cc1ccc(S(=O)(=O)N(C)C[C@H]2Oc3ccc(NC(=O)CCN4CCOCC4)cc3C(=O)N([C@@H](C)CO)C[C@@H]2C)cc1	i	1.5
COc1cc2c(c3c1c(=O)c1cccc(F)c1n3C)C=CC(C)(C)O2	i	-9.9
CCS(=O)(=O)N1CCCCN2[C@H](CO)[C@H](c3ccc(-c4ccccc4)cc3)[C@@H]2C1	i	1.6
CO[C@H]1CN(C)C(=O)c2ccc(NC(=O)c3ccc4c(c3)OCO4)cc2OC[C@H](C)N(CCC(F)(F)F)C[C@@H]1C	i	-18
C[C@H](CO)N1C[C@H](C)[C@H](CN(C)S(=O)(=O)c2ccc(Oc3ccccc3)cc2)OCc2cnnn2CCCC1=O	i	-16
C[C@@H]1CN([C@H](C)CO)C(=O)c2cc(NC(=O)CCN3CCOCC3)ccc2O[C@H]1CN(C)Cc1ccccc1	i	0.4
C[C@H]1CN([C@@H](C)CO)C(=O)c2cc(NC(=O)C3CCCCC3)ccc2O[C@@H]1CN(C)S(=O)(=O)c1ccccc1	i	-1.8
Cc1noc(C)c1NC(=O)N(C)C[C@H]1Oc2ccc(NC(=O)Nc3ccc(C(F)(F)F)cc3)cc2CC(=O)N([C@H](C)CO)C[C@@H]1C	i	-5.9
CC(=O)N1[C@H](CO)[C@@H](c2ccccc2)C12CN(Cc1nccs1)C2	i	-5.8
CCCNC(=O)C[C@H]1C[C@@H]2c3cc(NC(=O)NC4CCCC4)ccc3O[C@@H]2[C@@H](CO)O1	i	-0.8
CCCNC(=O)N1[C@H](C#N)[C@H](c2ccc(C3=CCCCC3)cc2)[C@H]1CO	i	-1.2
O=C(C[C@@H]1CC[C@H](NS(=O)(=O)c2ccc(F)cc2)[C@@H](CO)O1)NCCc1ccncc1	i	-1.1
CO[C@@H](CN(C)S(=O)(=O)c1ccccc1)[C@@H](C)CN(Cc1ccccc1Cl)[C@@H](C)CO	i	1.2
C[C@H](CO)N1C[C@H](C)[C@@H](CN(C)Cc2cncnc2)Oc2ncc(-c3cncnc3)cc2C1=O	i	-6.5
C[C@H](CO)N1C[C@H](C)[C@@H](CN(C)S(=O)(=O)c2cccs2)OCCCC[C@H](C)Oc2ccc(NC(=O)Nc3ccc(F)cc3)cc2C1=O	i	-4.4
CN(C)C(=O)C[C@@H]1CC[C@@H]2[C@H](COC[C@H](O)CN2CC2CCCC2)O1	i	-11
CC(C)NC(=O)Nc1ccc2c(c1)C(=O)N([C@H](C)CO)C[C@@H](C)[C@H](CN(C)S(=O)(=O)c1ccc(Cl)cc1)OCCCC[C@@H](C)O2	i	5.1
C[C@@H]1CN([C@H](C)CO)C(=O)c2cccc(NC(=O)c3cnccn3)c2O[C@H]1CN(C)S(=O)(=O)c1cn(C)cn1	i	-4.5

Two entries drawn at random from those above, as already listed:
SMILES	FGF22 binding	MLL AF4-AF9 inh
O=C(C[C@@H]1CC[C@H](NS(=O)(=O)c2ccc(F)cc2)[C@@H](CO)O1)NCCc1ccncc1	i	-1.1
COc1cc2c(c3c1c(=O)c1cccc(F)c1n3C)C=CC(C)(C)O2	i	-9.9
